# Shh pathway inh – blocks Sonic Hedgehog signaling; inhibition, % (concentration not given with the values); AID 2313; Shh-LIGHT2 Gli-luciferase reporter, 30 h; hit rate 2.1% among 22,000;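 active means replicate mean of 65% or more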;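 further: pathway switched on by Shh-conditioned medium diluted 1 in 25 in low serum; 100 nL library stock added to about 40 µL; 0% = median of neutral wells and 100% = positive control level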
# MITF inh – blocks MITF activity | TRPM1 promoter luciferase, luminescence, 24 h | inhibition, % (no concentration beside the values) | hit rate 0.28% among 37,000;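 active means most replicates at 85% or more, or half of them and the mean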;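 further: human melanocyte line stably carrying TRPM1 promoter luciferase reporter; 0% = vehicle wells and 100% = a positive control; the first replicate is given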
# YB-1 expr inh – YB-1 expression inhibition; U2OS, qRT-PCR YB-1 vs CDIP delta delta Cp, 16 h; hits give high values; zero = DMSO, each unit about twofold; delta delta Cp (YB-1 minus CDIP) (test concentration not listed); hit rate 0.37% among 30,000;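 active means delta delta Cp rounded down to an integer at or above 3, about 3 SD of DMSO wells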;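 further: higher means less YB-1 transcript or more CDIP transcript relative to DMSO; stock transfer was 100 nL into about 100 µL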
# PD-1 reverse act – activators reversing PD-1 mediated T-cell inhibition; primary human CD4 T cells, PD-L1 beads, CellTiter-Glo 96 h; activation, % (test concentration not listed); 29,000 tested, under 10 active;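 active means replicate mean of 50% or more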;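 further: 0% = median vehicle wells and 100% = positive control; 100 nL library stock added to about 50 µL; numbers are from one replicate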
# Active calls of the source: *; . = not tested or not shown. This is a subset. The share of hits here may be higher or lower than overall.
# Order of values – Shh pathway inh, MITF inh, YB-1 expr inh, PD-1 reverse act
Cc1noc(C)c1NC(=O)Nc1ccc2c(c1)CC(=O)N([C@@H](C)CO)C[C@H](C)[C@@H](CN(C)C(=O)Nc1ccccc1)O2
  -7, -8, 0.02, .
C[C@H]1CN([C@@H](C)CO)C(=O)Cc2cc(NC(=O)Nc3ccccc3)ccc2O[C@@H]1CN(C)C(=O)Nc1cccc2ccccc12
  ., 9, -0.33, -0.9
CC(C)(C)NC(=O)Cn1cc(C(=O)c2ccco2)c2ccccc21
  ., 3, ., -2.5
C[C@H]1CN([C@@H](C)CO)C(=O)c2cc(NS(=O)(=O)c3cccs3)ccc2O[C@H]1CN(C)S(=O)(=O)c1cccs1
  ., -11, -0.051, -2.2
Cc1ccnc(NS(=O)(=O)c2ccc(N)cc2)n1
  -1, -4, -0.28, .
Cc1ccc(S(=O)(=O)N(C)C[C@H]2Oc3ccc(NS(=O)(=O)c4ccc(Cl)cc4)cc3CC(=O)N([C@@H](C)CO)C[C@H]2C)cc1
  -63, 7, -0.12, -2.4
Cn1c(=O)c2c(n(C)c1=O)n(C)c(=O)n2C
  -7, -9, -0.081, 0.1
COc1ccc(NC(=O)Nc2ccc3c(c2)C(=O)N([C@@H](C)CO)C[C@@H](C)[C@@H](CN(C)Cc2ccccc2)O3)cc1
  -5, -2, -0.084, 0.7
Cc1noc(C)c1S(=O)(=O)Nc1ccc2c(c1)CC(=O)N([C@H](C)CO)C[C@@H](C)[C@H](CN(C)Cc1ccc(C(=O)O)cc1)O2
  -9, -7, 0.12, .
C[C@@H]1CN([C@H](C)CO)C(=O)Cc2cc(NC(=O)Cc3ccccc3)ccc2O[C@H]1CN(C)C
  -15, -4, 0.049, .
O=C1CC(Cc2ccccc2)C(=O)N1CCCn1ccnc1 (configuration not stated)
  ., -16, ., 1.8
Cc1nnc(SCC(=O)Nc2cccc(Cl)c2Cl)n1-c1ccc(F)cc1
  ., -8, ., 1.1
COc1ccc(C(=O)CC2(O)C(=O)N(Cc3ccccc3)c3ccc(Br)cc32)cc1[N+](=O)[O-] (configuration not stated)
  ., 37, ., -15
COc1ccc(CN(C)C[C@@H]2Oc3ccc(NS(=O)(=O)c4ccccc4)cc3CC(=O)N([C@H](C)CO)C[C@H]2C)cc1
  7, 5, 0.051, .
COc1ccc2c(c1)OCC(Cc1ccc(OC)c(OC)c1)C2=O (configuration not stated)
  3, 1, 0.25, .
COc1ccc(CN(C)C[C@@H]2Oc3ccc(NS(=O)(=O)c4ccc(F)cc4)cc3C(=O)N([C@H](C)CO)C[C@@H]2C)cc1
  0, 1, 0.29, -0.7
CC(C)NCC(O)COc1ccc(CCOCC2CC2)cc1 (configuration not stated)
  -24, 9, 0.22, .
CCOc1ccc(Br)cc1S(=O)(=O)NC1CC(C)(C)NC(C)(C)C1
  ., -15, ., 1.4
Cc1noc(C)c1S(=O)(=O)Nc1ccc2c(c1)C(=O)N([C@@H](C)CO)C[C@H](C)[C@@H](CN(C)S(=O)(=O)c1cn(C)cn1)O2
  ., -3, -0.23, -2.7
C[C@H]1CN([C@@H](C)CO)C(=O)Cc2cc(NC(=O)Cc3cn(C)c4ccccc34)ccc2O[C@@H]1CN(C)Cc1ccc(-c2ccccc2)cc1
  -18, 42, 0.0094, -1.5
C=C1C2CCC3[C@]4(C)CCC[C@@](C)(C(=O)O)C4CC[C@]3(C2)C1OC(C)=O (some centres not stated)
  -13, -12, 0.05, -0.7
C=CS(=O)(=O)c1ccc(OC)c(N)c1
  83*, 58, 0.44, -33
Cc1ccc(S(=O)(=O)Nc2cccc3c2O[C@@H](CN(C)Cc2ccc(C(=O)O)cc2)[C@H](C)CN([C@H](C)CO)C3=O)cc1
  -14, 2, -0.0015, .
CNC[C@H]1Oc2ccc(NS(=O)(=O)c3c(C)noc3C)cc2C(=O)N([C@@H](C)CO)C[C@@H]1C
  ., -4, -0.3, .
C[C@@H]1CN([C@H](C)CO)C(=O)c2cc(NC(=O)C3CCCCC3)ccc2O[C@@H]1CN(C)CC1CCCCC1
  2, -6, -0.3, 0.0
COc1ccc(-n2c(CSc3nnc(-c4ccc(OC)c(OC)c4)n3-c3ccccc3)n[nH]c2=S)cc1
  ., 4, ., 0.3
CC(Oc1ccccc1)C(=O)O (configuration not stated)
  -9, -1, 0.14, -0.1
Cc1noc(C)c1S(=O)(=O)N(C)C[C@@H]1Oc2ccc(NS(=O)(=O)c3ccccc3)cc2CC(=O)N([C@H](C)CO)C[C@H]1C
  -37, -5, -0.31, -1.6
Cc1ccc(S(=O)(=O)Nc2ccc3c(c2)C(=O)N([C@H](C)CO)C[C@@H](C)[C@@H](CN(C)S(=O)(=O)c2ccc(Cl)cc2)O3)cc1
  34, 15, -0.18, 3.0
COC(=O)c1cccc(-n2c(CCC(=O)O)ccc2-c2cccs2)c1
  ., -1, ., 2.6
COc1ccc(S(=O)(=O)N(C)C[C@H]2Oc3c(NC(=O)c4ccncc4)cccc3C(=O)N([C@@H](C)CO)C[C@H]2C)cc1
  34, -47, -0.21, 0.7
C[C@@H]1CN([C@@H](C)CO)C(=O)Cc2cc(NC(=O)Cc3ccccc3)ccc2O[C@@H]1CN(C)CC1CCCCC1
  20, -8, 0.021, 2.8
CCCn1nnnc1NC(=O)COc1ccc(Cl)c(C)c1
  ., 10, ., -0.4
Cc1noc(C)c1S(=O)(=O)Nc1ccc2c(c1)C(=O)N([C@H](C)CO)C[C@@H](C)[C@H](CN(C)Cc1ccccc1)O2
  -22, 2, -0.12, .
COc1ccc(CC(=O)Nc2cccc(C(=O)Nc3ccccc3C(=O)O)c2)cc1OC
  ., -13, ., 2.3
CCCCN(C)S(=O)(=O)c1cc(-c2nnc3c4ccccc4c(C)nn23)ccc1OC
  ., 18, ., -4.7
COc1ccccc1N(Cc1cc2ccc(C)cc2[nH]c1=O)S(=O)(=O)c1ccccc1
  ., 19, ., 1.4
C[C@@H]1CN([C@@H](C)CO)C(=O)c2cc(NC(=O)Cn3cnnn3)ccc2O[C@@H]1CN(C)Cc1ccc(C(=O)O)cc1
  ., -5, -0.11, 1.5
Cc1ccc(S(=O)(=O)Nc2cccc3c2O[C@@H](CN(C)S(=O)(=O)c2cccs2)[C@@H](C)CN([C@@H](C)CO)C3=O)cc1
  49, 6, -0.37, -1.7
Cc1c(C)c(C)c(C(=O)c2ccccc2C(=O)NCc2cccnc2)c(C)c1C
  25, -1, 0.19, 0.4

# One compound at a time, from the list above. Screens in order: Shh pathway inh	MITF inh	YB-1 expr inh	PD-1 reverse act
# COc1ccc(S(=O)(=O)N(C)C[C@H]2Oc3c(NC(=O)c4ccncc4)cccc3C(=O)N([C@@H](C)CO)C[C@H]2C)cc1 is listed with 34	-47	-0.21	0.7
# Cc1noc(C)c1S(=O)(=O)N(C)C[C@@H]1Oc2ccc(NS(=O)(=O)c3ccccc3)cc2CC(=O)N([C@H](C)CO)C[C@H]1C is listed with -37	-5	-0.31	-1.6
# Cc1ccc(S(=O)(=O)Nc2cccc3c2O[C@@H](CN(C)Cc2ccc(C(=O)O)cc2)[C@H](C)CN([C@H](C)CO)C3=O)cc1 is listed with -14	2	-0.0015	.
# C[C@@H]1CN([C@H](C)CO)C(=O)Cc2cc(NC(=O)Cc3ccccc3)ccc2O[C@H]1CN(C)C is listed with -15	-4	0.049	.
# COc1ccc2c(c1)OCC(Cc1ccc(OC)c(OC)c1)C2=O (configuration not stated) is listed with 3	1	0.25	.

# Next compounds follow.
# Order of values – Shh pathway inh, MITF inh, YB-1 expr inh, PD-1 reverse act
C[C@@H]1CN([C@H](C)CO)C(=O)c2cccc(NC(=O)C3CCOCC3)c2O[C@@H]1CN(C)S(=O)(=O)c1ccccc1
  14, -2, 0.029, .
CC(=O)OC1CC2(C)C(CCC3C4(C)CCC(=O)C(C)C4C(O)C(=O)C32C)/C1=C(\CCC=C(C)C)C(=O)O (configuration not stated)
  27, ., 0.25, .
COc1ccc(S(=O)(=O)N(C)C[C@@H]2Oc3ccc(NC(=O)CCN4CCOCC4)cc3C(=O)N([C@H](C)CO)C[C@H]2C)cc1
  -12, 8, 0.039, -0.1
C[C@H]1CN([C@@H](C)CO)C(=O)c2cc(NS(=O)(=O)c3ccc(F)cc3)ccc2O[C@H]1CN(C)Cc1ccncc1
  -49, 0, 0.14, -1.1
CCCCC(Nc1ncnc2ccccc12)C(=O)O (configuration not stated)
  ., 21, ., -0.2
C[C@@H]1CN([C@H](C)CO)C(=O)Cc2cc(NC(=O)Cc3cn(C)c4ccccc34)ccc2O[C@H]1CN(C)C(=O)Nc1ccc2c(c1)OCO2
  -11, 14, 0.27, .
C[C@@H]1CN([C@H](C)CO)C(=O)Cc2cc(NC(=O)Nc3ccc(C(F)(F)F)cc3)ccc2O[C@H]1CN(C)CC1CCCCC1
  21, 27, 0.07, -9.2
COc1ccc(CN(C)C[C@@H]2Oc3c(NC(=O)Nc4c(C)noc4C)cccc3C(=O)N([C@H](C)CO)C[C@@H]2C)cc1
  30, 3, -0.45, 2.5
COc1cccc(-c2cc(C(F)(F)F)n3nc(C(=O)NCc4ccccn4)cc3n2)c1
  ., -3, ., -0.9
C[C@H]1CN([C@@H](C)CO)C(=O)c2cc(N(C)C)ccc2O[C@@H]1CN(C)Cc1ccncc1
  -46, 13, 0.23, -0.6
C[C@@H]1CN([C@H](C)CO)C(=O)c2cc(NC(=O)CCCCCC(=O)Nc3ccccc3N)ccc2O[C@@H]1CN(C)Cc1ccncc1
  ., 1, -0.22, 1.3
O=C(O)CNC(=O)c1ccc(S(=O)(=O)N2CCOCC2)cc1
  ., -7, ., 0.7
Cc1cc(S(=O)(=O)Nc2ccc(C(=O)O)cc2)c(C)c(S(=O)(=O)c2ccc(Cl)cc2)c1
  ., 7, ., 0.9
COc1ccc(CN(C)C[C@@H]2Oc3ccc(NS(=O)(=O)c4ccccc4)cc3C(=O)N([C@@H](C)CO)C[C@@H]2C)cc1
  -11, -3, -0.19, -0.7
COC(=O)C1=C(C)NC(C)=C(C(=O)OC)C1c1ccc(C(C)C)cc1
  40, -24, 0.12, -0.1
C[C@H]1CN([C@@H](C)CO)C(=O)Cc2cc(NC(=O)CCCCCC(=O)Nc3ccccc3N)ccc2O[C@H]1CN(C)Cc1ccc(Cl)c(Cl)c1
  ., 3, -0.24, 1.8
COc1ccc(S(=O)(=O)N(C)C[C@H]2Oc3ccc(NC(=O)C4CCCCC4)cc3C(=O)N([C@@H](C)CO)C[C@@H]2C)cc1
  ., 2, -0.69, 2.5
COc1ccc(S(=O)(=O)Nc2ccc3c(c2)CC(=O)N([C@H](C)CO)C[C@@H](C)[C@@H](CN(C)C(=O)Nc2ccc4c(c2)OCO4)O3)cc1
  13, 1, -0.14, 0.7
C[C@H]1CN([C@@H](C)CO)C(=O)Cc2cc(NC(=O)C3CCCCC3)ccc2O[C@@H]1CN(C)C(=O)Nc1cccc2ccccc12
  -4, -16, -0.38, .
C[C@@H]1CN([C@H](C)CO)C(=O)Cc2cc(NS(=O)(=O)c3ccc(F)cc3)ccc2O[C@@H]1CN(C)C
  5, -3, -0.4, 1.9
O=c1oc(-c2cccc(Cl)c2)nc2c1cnn2-c1ccccc1
  -8, -7, 0.22, -1.5
CNC[C@H]1Oc2ccc(NC(=O)Nc3ccc(F)cc3)cc2CC(=O)N([C@H](C)CO)C[C@H]1C
  -11, -12, 0.19, 1.2
CCc1ccc(OCC(=O)Nc2sc3c(c2C(N)=O)CCCC3)c(Br)c1
  ., -19, ., 1.1
Cc1c(Cl)cccc1NC(=O)C(C)N(c1ccc(Oc2ccccc2)cc1)S(C)(=O)=O (configuration not stated)
  ., 18, ., 0.9
Cc1ccc2cc(S(=O)(=O)NCCC(=O)O)ccc2c1
  ., 4, ., 1.4
COc1ccc(NC(=O)Nc2cccc3c2O[C@H](CN(C)S(C)(=O)=O)[C@H](C)CN([C@@H](C)CO)C3=O)cc1
  7, -4, -0.31, -0.7
C[C@H](CO)N1C[C@H](C)[C@H](CN(C)CC2CCCCC2)Oc2ccc(NC(=O)Nc3cccc4ccccc34)cc2CC1=O
  0, 12, 0.018, .
CSc1nsc(SCC(=O)c2ccc([N+](=O)[O-])cc2)n1
  ., 45, ., -5.9
Cc1cccc(-n2c(SCC(=O)c3ccccc3)nnc2-c2ccncc2)c1C
  ., -3, ., -3.4
Cc1ccc(S(=O)(=O)Nc2ccc3c(c2)CC(=O)N([C@@H](C)CO)C[C@H](C)[C@H](CN(C)C(=O)Nc2ccc4c(c2)OCO4)O3)cc1
  ., -7, -0.65, -0.1
O=C(CSc1nnc(C2COc3ccccc3O2)n1-c1ccccc1)c1ccc([N+](=O)[O-])cc1 (configuration not stated)
  ., 7, ., 0.9
O=C(CN1C(=O)c2cccc3cccc1c23)Nc1ccccc1C(=O)N1CCCC1
  ., 6, ., -1.4
CNC[C@H]1Oc2c(NC(=O)NC3CCCCC3)cccc2C(=O)N([C@H](C)CO)C[C@@H]1C
  -9, -7, 0.27, 2.9
Cc1noc(C)c1S(=O)(=O)N(C)C[C@H]1Oc2ccc(NC(=O)Cc3ccccc3)cc2CC(=O)N([C@@H](C)CO)C[C@H]1C
  16, -5, -0.1, -3.2
C[C@@H]1CN([C@@H](C)CO)C(=O)c2cc(NC(=O)CCN3CCOCC3)ccc2O[C@H]1CN(C)Cc1ccccc1
  5, -3, -0.17, .
